From PubChem
gsp ag: qHTS for Agonist of gsp, the Etiologic Mutation Responsible for Fibrous Dysplasia/McCune-Albright Syndrome: qHTS | gsp mutant cells, cAMP HTRF, 30 min; control for the full effect not named in the record | Potency, µM (doses to about 76.9 µM), without a hit: top-dose activation (cAMP increase), most hits filed as activators | actives 0.13% (n = 340,000) | AID 624287, 2012; active = well fitted activation curve with a large enough effect; inconclusive = small, poorly fitted or top-dose-only effect, or another doubt; inactive = no such curve, though single readings can be large or run the other way; cell line not stated here;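 also: phosphodiesterase inhibitor Ro 20-1724 added with compounds to block cAMP breakdown; potency is read from the fitted curve at half-maximal effect; nearly all actives have a fitted effect of over 60% in size; about a fifth of the inactives were tested at one dose only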
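Cells stably selected in G418 were plated at 2000/well, grown 16-24 hr, then given compounds in DMSO with the PDE inhibitor […] (300 uM solution added) for 30 min at 37C; cAMP was read by HTRF.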
gsp antag: qHTS for Antagonists of gsp, the Etiologic Mutation Responsible for Fibrous Dysplasia/McCune-Albright Syndrome: qHTS. actives 0.4% (n = 340,000). gsp-mutant cells, cAMP HTRF, 30 min; control for the full effect not named in the record. Potency, µM (doses to about 76.9 µM), inactives show at the highest dose activity change, negative = inhibition, most hits filed as inhibitors; active = falling curve of any shape with a large fitted effect; inconclusive = falling curve, mostly with a smaller effect; inactive = flat or rising curve; cell line not stated here;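 also: intracellular cAMP measured with PDE inhibitor Ro 20-1724 present during compound exposure; potency is read from the fitted curve at half-maximal effect; % is scaled to controls: 0 for no effect and ±100 for the full control effect; nearly all actives have a fitted effect of over 65% in size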
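Measurement of cellular cAMP by homogeneous time-resolved fluorescence following a 30 min compound exposure at 37C. The PDE inhibitor […] was present throughout; the assay buffer was DPBS with 0.05% BSA and 0.005% Tween 20.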
ClpP mod: qHTS Assay for Activators of ClpP. purified B. subtilis ClpP, FRET peptide cleavage, 20 min. Potency, µM (titrated, usually from 57.5 µM), for inactives: at the top dose activity change, negative = active. actives 1.9% (n = 340,000); active = well fitted falling curve with a large enough effect; inconclusive = small, poorly fitted or top-dose-only effect; inactive = no such curve, though single readings can be large or run the other way; also: potency is read from the fitted curve at half-maximal effect; the source files actives as falling curves though it sought activators and does not explain the sign; nearly all actives have a fitted effect of over 65% in size; many hits overshoot -100%
Target sequence (P80244 whole entry, looked up): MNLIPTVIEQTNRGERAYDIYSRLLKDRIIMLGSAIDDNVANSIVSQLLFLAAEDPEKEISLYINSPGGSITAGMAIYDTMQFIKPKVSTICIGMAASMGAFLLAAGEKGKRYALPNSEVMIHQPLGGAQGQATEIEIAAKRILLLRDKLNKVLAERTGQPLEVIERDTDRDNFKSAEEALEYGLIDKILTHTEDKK
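ClpP 10 microg/mL final, pH 8 Tris/KCl buffer with BSA, glycerol, Tween-20; compound pinned in; FRET-FV substrate; RT 20 min; Ex320/Em430; ΔFRET vs ADEP 5.8 microM, DMSO, no enzyme.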
Menin-MLL FL inh: qHTS Assay for Inhibitors Targeting the Menin-MLL Interaction in MLL Related Leukemias: Competition With Fluorescein Labeled MLL-derived Peptide. 290,000 tested, under 10 active. Fluorescence polarization, fluorescein-MLL peptide displacement from menin. FP activity change, % at 61.4 µM; inconclusive = falling polarisation curve, or a change in total fluorescence; inactive = total fluorescence flat and polarisation flat or rising; no compound was filed as active; the % refers to the polarisation; negative = inhibition;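 also: % of control where 0% means no effect; inhibitors lower the polarisation; unlabelled MLL peptide was the positive control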
TRPML1 blocker: qHTS for Inhibitors of the Human Mucolipin Transient Receptor Potential 1 (TRPML1); Mucolipin-1 (Homo sapiens), Q9GZU1; TRPML1-inducible cells, Ca2+ dye fluorescence, FDSS; stronger effect = lower value; inhibition of EC80 agonist-evoked calcium signal; activity change, negative = inhibition, % (no concentration beside the values); actives 0.02% (n = 390,000); AID 624415, 2012; in the data active means activity change below about -50%; inconclusive means about -30% to -50%; inactive means above about -30%;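 also: stimulus is agonist 54-4 at its EC80 concentration; % is scaled to controls: 0 for no effect and ±100 for the full control effect; compound concentration not given in the record; the text of the record puts the active cut at -80%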
Target sequence (Q9GZU1 whole entry, looked up): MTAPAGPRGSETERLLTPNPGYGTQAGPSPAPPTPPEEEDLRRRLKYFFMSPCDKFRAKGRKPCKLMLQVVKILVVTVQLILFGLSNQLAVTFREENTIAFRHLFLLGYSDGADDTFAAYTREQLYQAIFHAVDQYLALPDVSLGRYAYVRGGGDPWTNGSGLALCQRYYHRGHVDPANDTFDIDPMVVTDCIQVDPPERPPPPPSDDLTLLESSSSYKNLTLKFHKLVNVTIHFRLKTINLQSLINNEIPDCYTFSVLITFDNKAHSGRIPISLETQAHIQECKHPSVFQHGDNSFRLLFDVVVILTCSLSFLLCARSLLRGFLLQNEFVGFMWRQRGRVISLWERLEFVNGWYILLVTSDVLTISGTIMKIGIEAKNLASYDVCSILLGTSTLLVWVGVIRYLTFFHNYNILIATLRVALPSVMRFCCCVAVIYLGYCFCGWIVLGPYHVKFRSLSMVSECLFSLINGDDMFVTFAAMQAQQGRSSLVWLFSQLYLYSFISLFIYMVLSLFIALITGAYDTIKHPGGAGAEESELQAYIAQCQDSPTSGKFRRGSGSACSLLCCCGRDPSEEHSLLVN
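Tet-induced TRPML1-DL cells loaded with Ca8 no-wash calcium dye were read kinetically on FDSS. Compound addition was followed by EC80 agonist 54-4 (4 uM final); inhibition was read over 110 s.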
TRPML1 agonist: qHTS for Agonists of the Human Mucolipin Transient Receptor Potential 1 (TRPML1); AID 624414, 2012; Mucolipin-1 (Homo sapiens), Q9GZU1; actives 0.12% (n = 410,000); activation, % (test concentration not listed); TRPML1-expressing cells, Ca2+ dye fluorescence, FDSS; host cell line not named in the record; reference of the full effect not given here; in the data active = activation above about 50%; inconclusive = about 30% to 50%; inactive = below about 30%; also: 0% is about no effect; the text of the record puts the active cut at 80%
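In this qHTS format, compounds were pin-transferred onto Ca8-dye-loaded TRPML1-DL cells induced with Tet overnight, and intracellular Ca2+ fluorescence was recorded kinetically for 110 s after a 10 s baseline. A subsequent 4uM final 54-4 (EC80) addition followed by a second 110 s read served as the antagonist phase.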
* hit, by the source's call; ? = inconclusive; · = not tested or not shown; & = joins results of further samples; [ ] = remark or other dose.

SMILES	gsp ag	gsp antag	ClpP mod	Menin-MLL FL inh	TRPML1 blocker	TRPML1 agonist
COc1cc(/C=C(/C#N)c2nc3ccccc3[nH]2)ccc1OC(=O)c1ccco1	9%	3%	-17%	?	8	0.2
N#Cc1ccc(Sc2nc3ccccc3[nH]2)cc1C#N	-16%	-4%	-3.0%	-2.1	23	2.6
CC(SCc1cn2cc(Cl)ccc2n1)C(=O)O (configuration not stated)	?	-5%	-29%	-1.5	24	-0.2
COc1ccc(C)cc1CN1C(=O)c2ccccc2C1=O	2%	-5%	·	-3.7	-16	3.3
CCCC(=O)NC(c1ccco1)c1cc(Cl)c2cccnc2c1O (configuration not stated)	11%	-5%	0.9%	6.7	-7	4.6
COc1ccc(S(=O)(=O)N2CCN(C(=O)CC(C)C)CC2)cc1	9%[15.4 µM]	-5%	-1.1%	2.8	3	-0.8
CC(C)CCN1CCN(Cc2cccn2-c2ccc(Cl)cn2)CC1CCO (configuration not stated)	10%[15.4 µM]	4%	·	-0.6	6	2.0
COc1ccccc1/C=N\N=C(\N)c1ccccn1	43%	2%	0.0%	2.1	-5	0.6
Cc1cccc([C@@H]2[C@@H]3C(=O)N(Cc4ccccc4)C(=O)[C@@H]3[C@]3(Cc4ccccc4)C(=O)N(c4ccccc4)C(=O)N23)c1	-17%	5%	-3.8%	·	-12	5.8
C=CCn1c(NC(=O)CC)c(C(=O)OCC)sc1=S	17%	5%	1.1%	6.0	-15	0.3
O=C(CC(c1ccc(F)cc1)c1ccco1)N1CCCC1 (configuration not stated)	-52%[inhibitor]	-1%	-1.6%	8.0	2	-0.7
Cc1cccc(NC(=O)CSc2nnc(Cn3cnc4ccccc43)o2)c1	6%	-9%	-2.9%	-0.9	-12	0.5
COc1ccc2c(c1)CC/C(=C\c1ccc(OC)c(Cn3nc(C)cc3C)c1)C2=O	-23%	-13%	-4.8%	0.1	57	12
CC(Sc1nc2ccccc2[nH]1)C(=O)Nc1ccc2c(c1)OCCO2 (configuration not stated)	?	-5%	3.2%	2.6	-4	5.0
Cc1noc(C)c1COc1ccc(C(=O)NCCOc2ccccc2)cc1	8%	-9%	0.1%	·	13	-0.5
O=C1CC(c2cccc(Cl)c2Cl)c2cc3c(cc2N1)OCCO3 (configuration not stated)	·	·	-6.4%	·	26	-0.3
CCOc1ccccc1NC(=O)c1cc2ccccc2o1	3%	·	53%	·	17	0.7
Cc1ccc(OCC(=O)NCC2(N(C)C)CCCCC2)cc1C	·	·	-0.5%	·	8	0.5
O=C(Cn1cnc2ccccc2c1=O)c1ccc2c(c1)OCCO2	-13%	-5%	-5.4%	-0.5	5	-0.8
O=C(CSc1ccc(-c2ccco2)nn1)c1ccc(F)cc1	1%	-1%	1.0%	-2.3	1	2.1
O=C(c1ccc(N2C(=O)c3ccccc3C2=O)cc1)N1CCN(S(=O)(=O)c2ccccc2F)CC1	-11%	·	3.1%	·	17	0.0
CCc1cc(Cn2nc(-c3ccccc3)cc2C(=O)O)on1	25%	9%	1.3%	·	-2	-0.6
CCN1CCN(c2cc(C)c3cc(NC(=S)NCc4cccs4)ccc3n2)CC1	-2%	1%	-15%	4.3	-17	0.5
O=C(NNC1=Nc2ccccc2SC1)c1ccc(F)cc1	7%[15.4 µM]	0%	-1.4%	3.0	6	-0.3
Nc1ncncc1-c1ccc2ccccc2c1	3%	3%	-6.9%	-0.9	-15	0.3

Next section
SMILES	gsp ag	gsp antag	ClpP mod	Menin-MLL FL inh	TRPML1 blocker	TRPML1 agonist
COc1ccc(CCNC(=O)COC(=O)c2ccc(C)s2)cc1	0%	1%	-1.5%	·	15	-0.4
Cc1nn(Cc2ccccc2)c2c1C(c1ccccc1)C(C#N)=C(N)O2 (configuration not stated)	5%	-16%	-0.4%	4.5	11	-1.0
CC(NC(=O)c1ccco1)C(=O)O (configuration not stated)	5%	8%	-1.4%	·	2	0.4
CN(C(=O)c1ccccc1OCc1ccc(F)cc1)c1c(N)n(Cc2ccccc2)c(=O)[nH]c1=O	-4%	4%	-1.1%	·	-3	-0.1
O=[N+]([O-])c1cccc(COc2ccc(CN3CCCC3)cc2)c1	·	13%	-1.7%	·	16	0.3
CC(C)NC(=O)Nc1ccc2c(c1)N(C)C(=O)c1ccccc1S2	·	·	0.6%	·	28	-0.4
COc1ccc(S(=O)(=O)NCc2cccnc2)cc1C(=O)N1CCCCC1	-6%[15.4 µM]	20%	·	0.3	2	0.1
CC(=O)Nc1ccccc1S(=O)(=O)CC1CC1(Cl)Cl (configuration not stated)	9%	11%	-0.8%	3.6	-12	0.6
CN(C)C(CNC(=O)CCc1nc2sc3c(c2c(=O)[nH]1)CCCC3)c1ccccc1 (configuration not stated)	-6%[15.4 µM]	4%	28µM*	·	18	0.0
COc1ccc(N2CCN(C(=O)CCCSc3nc4ccccc4[nH]3)CC2)cc1	1%	?	-0.9%	-0.2	51	2.8
CCN(CC)C(=O)Oc1nnc(SC(C)C)n1-c1ccc(Cl)cc1	-5%[15.4 µM]	-10%	-1.6%	0.9	14	1.7
N#Cc1ccccc1NC(=O)c1ccc2c(c1)OCO2	6%	8%	·	-0.2	6	-0.7
Cc1ccc(CNC(=O)C2CCN(S(=O)(=O)N3CCC(C)CC3)CC2)cc1	-3%	·	2.9%&-0.7%	·	-7&28	-0.7&-1.0
COc1ccc2c(N)c(C(=O)NN)[nH]c2c1	1%[15.4 µM]	?	-7.6%	4.5	8	-0.6
COc1ccc(O)c(/C=N/NC(=O)c2cccc(N3CCCC3=O)c2)c1	-36%[inhibitor]	1%	-0.9%	3.7	-13	1.1
C/C(=N\NC(=O)c1cc(-c2ccc(C)s2)[nH]n1)c1ccco1	14%	-10%	-2.1%	1.7	0	1.4
CCCN(Cc1cc2ccc(C)cc2[nH]c1=O)C(=O)c1cccnc1	11%	6%	?	-0.8	-10	-0.1
CC1(C)Cc2c(cnn2-c2ccc(F)cc2)C(NC(=O)CCc2ccncc2)C1 (configuration not stated)	-22%	-6%	-0.2%	4.1	32	-1.1
COc1cccc(C2=CC(c3ccccc3F)n3ncc(C(=O)Nc4ccc(F)cc4)c3N2)c1 (configuration not stated)	·	·	-2.9%	·	-11	0.2
Nc1c(C(=O)C2CC2)sc2nc(-c3cccs3)cc(C(F)(F)F)c12	?	6%	-15%	?	8	17
COc1ccc(OCc2nc3ccccc3n2C(C)C)cc1	6%[15.4 µM]	-13%	·	-2.9	19	2.5
O=C(Cn1cnc2c(cnn2-c2ccccc2)c1=O)c1ccc(Cl)cc1	-1%	-2%	-1.1%	-0.4	8	-0.6
CCOC(=O)c1c(NC(=O)c2noc3c2CC(C(C)(C)C)CC3)sc2c1CCCC2 (configuration not stated)	·	·	-4.6%	·	-1	-0.3
Cn1c(-c2ccccc2)cnc1SCC(=O)NCc1ccco1	10%	6%	-0.9%	1.1	-5	0.1
C#CCNC(=O)C1=C[C@@H](c2ccc(Br)cc2)C[C@@H](OCCCCO)O1	·	-5%	0.8%	9.8	10	-0.2

The results go on:
SMILES	gsp ag	gsp antag	ClpP mod	Menin-MLL FL inh	TRPML1 blocker	TRPML1 agonist
Cc1cc(C)n(-c2ccc(NC(=O)C3CCCCN3Cc3cccc4c3OCO4)cc2)n1 (configuration not stated)	16%	-4%	1.3%	3.2	0	0.8
O=C1CCCC1C(=O)Nc1ccc2ccccc2c1 (configuration not stated)	-12%	-2%	-1.9%	-2.9	-5	-0.4
COc1cccc(N2CCN(S(=O)(=O)c3ccc4c(c3)NC(=O)C(C)C(=O)N4)CC2)c1 (configuration not stated)	0%	-11%	0.4%	3.1	-9	-0.7
CCOC(=O)c1ccc(NC(=S)N2CCN(CCNC3=CC(=O)CC(C)(C)C3)CC2)cc1	4%[15.4 µM]	6%	·	1.6	12	0.1
O=C(Cc1cccs1)NCc1cccc(Br)c1	1%	10%	-2.7%	1.0	-1	-0.5
CC(C)CCNC(=O)Nc1ccc2c(c1)N(C)C(=O)c1ccccc1S2	·	·	-3.4%	·	-1	4.0
COc1ccc(NC(=O)C2CCN(S(=O)(=O)c3cccc4cccnc34)CC2)cc1	-29%	-22%	-0.5%	-0.3	-13	-0.1
COc1ccc(S(=O)(=O)NCC2CCC(C(=O)NCCCN3CCCC3=O)CC2)cc1 (configuration not stated)	0%	9%	-0.2%	2.6	19	0.5
CCCOC(=O)C1=C(C)OC23OC(N)=C(C#N)C12C(=O)c1ccccc13 (configuration not stated)	1%	-21%	0.8%	2.7	8	1.5
Cc1nc2ccc(NC3=NCCCCC3)cc2s1	3%	-1%	0.9%	-0.7	2	-0.7
COc1ccc(CNC(=O)N2CCN(S(=O)(=O)c3ccccc3F)CC2)cc1	7%[15.4 µM]	-4%	·	-3.0	12	-0.8
CC(C)(C)c1ccc(C(=O)Nc2sc3c(c2C(=O)O)CCC3)cc1	14%	-12%	·	-2.9	-2	-0.4
O=C(CCN1C(=O)/C(=C/c2ccccc2Cl)SC1=S)NC1C=CS(=O)(=O)C1 (configuration not stated)	-99%[inhibitor]	-6%	2.3%	5.2	7	-0.8
CC1(C(=O)O)Oc2cccnc2NC1=O (configuration not stated)	-2%[15.4 µM]	-3%	·	0.9	3	1.4
Oc1ccc(CN2CCCCC2)nc1-c1ccccc1	23%	-5%	35µM*	-1.0	3	-0.5
Cc1ccc2cc(C=O)c(Cl)nc2c1	-3%	6%	-3.2%	2.8	-5	-0.5
CCOC(=O)C1(Cc2ccc(Cl)cc2)CCN(CCCn2cccn2)CC1	?	10%	·	-2.8	22	0.8
Cc1ccc(C2SCC(=O)N2Cc2cn3ccsc3n2)o1 (configuration not stated)	-1%	-2%	-1.2%	0.7	16	-0.1
COc1ccc(Cl)cc1NC(=O)CN(C(=O)c1ccco1)C1CCCCC1	2%	-16%	1.1%	4.6	3	-0.2
O=C(c1ccc(F)c(S(=O)(=O)N2CCOCC2)c1)N(CCc1ccccc1)Cc1ccccc1	-91%[inhibitor]	-7%	-4.2%	·	8	0.9

Some of the entries above, set out differently:
CCOC(=O)c1c(NC(=O)c2noc3c2CC(C(C)(C)C)CC3)sc2c1CCCC2 (configuration not stated)
  gsp ag: ·; gsp antag: ·; ClpP mod: -4.6%; Menin-MLL FL inh: ·; TRPML1 blocker: -1; TRPML1 agonist: -0.3

N#Cc1ccccc1NC(=O)c1ccc2c(c1)OCO2
  gsp ag: 6%; gsp antag: 8%; ClpP mod: ·; Menin-MLL FL inh: -0.2; TRPML1 blocker: 6; TRPML1 agonist: -0.7
